B2AR ag = agonists of human beta-2 adrenergic receptor inducing internalization; hit rate 0.43% among 340,000; AID 504454; response, % (concentration not given with the values); Am2.2-beta2AR cells, FAP receptor internalization, flow cytometry; reference of the scale not given here;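 active = response above a set limit, near 3 SD of response in nonfluorescent compounds, cut at about 42% in these data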;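 also: stock transfer was 100 nL into about 11 µL; a reference agonist was the positive control; negative values mostly stem from fluorescent compounds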
Ecoli growth = inhibitors of Escherichia coli growth; hit rate 0.21% among 330,000; OD600 absorbance (no concentration beside the values); OD600, 23 h; stronger effect = lower value;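 active = OD600 absorbance below the run mean of sample wells minus 3.6 SD, in any replicate, cut at about 0.56 in these data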;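 also: stock transfer was 300 nL into about 60 µL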
rRNA inh HTS = selective bacterial rRNA inhibition in E. coli | E. coli WT GFP vs humanized-ribosome RFP mutants, fluorescence, 24 h; stronger effect = lower value; DMSO median 0, no signal -100 | GFP signal change (wild-type ribosome), % (no concentration beside the values) | hit rate 1.6% among 350,000;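 active = significant combined selectivity score with lowered wild-type GFP, culture density cut under 30%, mutant RFP and density less affected; inactive = any of these conditions unmet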; also: one replicate is shown; some compounds called inactive have numbers as strong as hits
FGF22 binding = binders of recombinant human FGF22 by thermal shift | AID 651658 | hit rate 1.5% among 340,000 | calls only at 9.99 µM | SYPRO orange fluorescence; percent of sucrose octasulfate shift, DMSO zero | Q9HCT0;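 active = melting point raised past a set limit in the mean and every replicate; three in four hits are not shown here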
HNF4A DNA FP = change in binding of human HNF4 alpha to DNA. hit rate 0.3% among 360,000. HNF4a-FITC DNA binding, fluorescence polarization, 1 h. activity change, % at 10 µM; in the data active = activity change above about 30%, passing the limit was not always enough;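 also: controls were the assay level and a saturating level of protein; the project sought stronger binding though the title names inhibitors; some compounds called inactive have numbers as strong as hits; positive values seem to mean higher polarization but the record does not say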
Target sequence (P41235 whole entry, looked up): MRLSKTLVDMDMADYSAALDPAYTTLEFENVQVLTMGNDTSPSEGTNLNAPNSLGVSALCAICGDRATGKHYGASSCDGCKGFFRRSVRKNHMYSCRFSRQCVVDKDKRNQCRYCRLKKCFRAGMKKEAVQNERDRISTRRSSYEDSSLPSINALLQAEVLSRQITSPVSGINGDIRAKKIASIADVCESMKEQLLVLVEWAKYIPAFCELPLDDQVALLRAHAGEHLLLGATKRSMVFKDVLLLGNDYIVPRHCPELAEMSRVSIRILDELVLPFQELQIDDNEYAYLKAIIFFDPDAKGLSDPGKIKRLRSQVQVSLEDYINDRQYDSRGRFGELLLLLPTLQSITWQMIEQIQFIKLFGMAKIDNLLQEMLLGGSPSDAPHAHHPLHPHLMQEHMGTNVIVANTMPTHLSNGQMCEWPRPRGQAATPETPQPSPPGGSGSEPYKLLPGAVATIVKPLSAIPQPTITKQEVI
ALR inh = blocks human ALR sulfhydryl oxidase activity; purified ALR, DTT oxidation, H2O2 HRP-luminol luminescence; inhibition, % (no concentration beside the values); hit rate 3.8% among 290,000; AID 485317;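 active = mean and each replicate at 75% or more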;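 also: stock transfer was 7.5 nL into about 7.5 µL; 0% = neutral wells and 100% = wells with inactivated enzyme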
Target sequence (P55789 whole entry, looked up): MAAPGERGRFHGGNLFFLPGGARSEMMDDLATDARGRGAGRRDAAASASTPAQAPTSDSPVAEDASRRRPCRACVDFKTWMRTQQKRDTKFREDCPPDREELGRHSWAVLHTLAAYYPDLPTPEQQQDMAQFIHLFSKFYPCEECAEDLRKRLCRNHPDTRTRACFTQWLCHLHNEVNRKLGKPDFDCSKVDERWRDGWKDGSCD
UCH37 inh = blocks the human deubiquitinase UCH37. Q9Y5K5. purified proteasome/UCH37, Ub-AMC cleavage fluorescence. inhibition, % (no concentration beside the values). hit rate 0.33% among 330,000. AID 588478;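 active = mean of two replicates above 20%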;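 also: 0% = compound-free wells with enzyme and 100% = wells lacking proteasome; stock transfer was 100 nL into about 20 µL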
Target sequence (Q9Y5K5 whole entry, looked up): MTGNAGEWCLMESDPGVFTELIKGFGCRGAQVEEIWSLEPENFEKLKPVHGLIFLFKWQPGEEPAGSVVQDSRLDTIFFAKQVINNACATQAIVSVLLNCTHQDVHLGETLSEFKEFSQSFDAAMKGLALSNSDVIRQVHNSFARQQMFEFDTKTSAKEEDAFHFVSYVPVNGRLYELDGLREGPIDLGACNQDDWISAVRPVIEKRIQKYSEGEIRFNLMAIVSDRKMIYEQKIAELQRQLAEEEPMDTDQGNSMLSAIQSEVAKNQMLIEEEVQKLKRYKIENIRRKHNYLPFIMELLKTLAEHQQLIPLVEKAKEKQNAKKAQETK
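system = Proteasome-associated human UCH37 deubiquitinase | amount = 0.15 nM proteasome as dispensed | medium = pH 7.4 Tris-HCl (50 mM) with ovalbumin, ATP-MgCl2, DTT | incubation = 30 min preincubation with enzyme, 25 min cleavage at room temperature | detection = AMC fluorescence 355/460 nm | read-out basis = percent inhibition | controls = no-proteasome and no-compound wells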
rRNA inh HTS OD600 = recorded beside rRNA inh HTS, whose call it bears; OD600 change, %; measured here: OD600 growth;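 optical density of the mix in the first replicate; 0 = DMSO median and -100 = no signal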
rRNA inh HTS RFP = second read-out of rRNA inh HTS, no call of its own (marks repeat the call); RFP signal change, %; measured here: RFP humanized mutant strains;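 first replicate; 0 = DMSO median and -100 = no signal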
The depositor's hits bear a star; i = inactive; nt = no result given; & = joins results of further samples.

The line under a structure holds: FGF22 binding	B2AR ag	Ecoli growth	ALR inh	HNF4A DNA FP	rRNA inh HTS RFP	rRNA inh HTS OD600	UCH37 inh	rRNA inh HTS
(1) Cc1ccnc(NC(=O)CN2C(=O)NC(C)(c3ccc4ccccc4c3)C2=O)c1 (stereo not drawn)
  i	7	0.67	nt	-1.7	2.1	-2	1.3	-3
(2) CCn1c(SCC(=O)NC2CCCCC2)nnc1-c1cccs1
  i	-8	0.72	10	2.5	-6.2	3	5.2	6
(3) COc1ccc(C)cc1NC(=O)COC(=O)c1ccc([N+](=O)[O-])o1
  i	2	0.69	-18	2.1	-1.2	-10	6.1	12
(4) O=C(CN1CCN(S(=O)(=O)c2ccccc2)CC1)Nc1ccc(Cl)c([N+](=O)[O-])c1
  i	9	0.66	-5	-1.0	0.6	4	6.3	-6
(5) Cc1ccc(N2N=C(c3ccc(Br)cc3)CCC2=O)cc1
  nt	-3	0.66	0	3.9	nt	nt	5.4	nt
(6) Cc1cc(=O)n2nc(N3CCC(C(=O)NCc4ccc(F)cc4)CC3)sc2n1
  i	1	0.59	-7	-2.8	0.8	7	0.3	1
(7) Cn1c(=O)c2c(nc(Oc3ccc4c(c3)OCO4)n2Cc2ccc(Br)cc2)n(C)c1=O
  nt	nt	0.75	-3	nt	nt	nt	1.3	nt
(8) O=C(/C=C/c1ccccc1)NCCc1nc2ccccc2[nH]1
  i	-6	0.61	5	5.0	-3.6	-11	3.9	3
(9) CCC(C)NC(=O)N[C@@H](CCSC)C(=O)OC (stereo partly drawn)
  nt	-1	0.76	-30	-0.9	nt	nt	-1.5	nt
(10) CCn1c(=O)n(CC)c2cc(N3CCCC3)c(NC(=O)c3c(F)cccc3F)cc21
  i	3	0.71	99*	0.2	0.6	-10	4.7	-7
(11) C=CCC[C@@H](Cc1ccc(F)cc1)C(=O)OC[C@@H](Cc1ccccc1)NC(=O)[C@H](CC=C)CC(=O)NCCO
  i	7	0.67	0	0.2	2.5	-10	3.3	0
(12) O=C(CCn1cccc1)NCCc1ccc(Cl)cc1
  nt	2	0.62	nt	-2.8	nt	nt	-3.5	nt
(13) COCCCN1C(=O)C(=O)/C(=C(/O)c2ccc(S(=O)(=O)N3CCOCC3)cc2)C1c1ccc(Cl)cc1 (stereo not drawn)
  i	0	0.69	0	-2.1	-3.3	10	10	5
(14) COc1cccc(C(=O)c2c(C)c(CCC#N)n3ccccc23)c1
  i	-14	0.67	nt	0.1	18	2	5.3	5
(15) COc1ccc2nc(NC(=O)CSc3nnc(-c4ccoc4C)n3C)sc2c1
  nt	7	0.7	-3	-2.0	nt	nt	7.0	nt
(16) Cc1cc(C)c(OCC(=O)N(C)CC(=O)Nc2ccc(N3CCOCC3)cc2)c(C)c1
  i	-2	0.7	27	1.8	1.6	2	4.6	0
(17) COc1ccc(NC(=O)C2CCCN2C(=O)Nc2ccc(OC)cc2)cc1 (stereo not drawn)
  i	19	0.68	nt	1.1	-0.1	11	3.0	-1
(18) CCN(CC(=O)Nc1c(F)cccc1F)C(=O)c1ccc(S(=O)(=O)NCc2ccco2)cc1
  i	2	0.66	4	1.1	0.2	11	5.4	12
(19) CC(C)Oc1ccc(Br)cc1C(=O)N/N=C/c1c[nH]c2ccccc12
  i	0	nt	0	-4.4	0.8	-15	nt	-19
(20) CCOc1ccc2nc(/N=C/c3c(C)[nH]n(-c4ccccc4)c3=O)sc2c1
  nt	0	nt	-15	4.5	nt	nt	nt	nt
(21) O=c1c2[nH]c3ccc(Cl)cc3c2ncn1CCN1CCCCC1
  nt	-18	0.7	7	0.4	nt	nt	-1.4	nt
(22) COc1cc(OC)c(OC)cc1CCC(C)NCCC(c1ccccc1)c1ccccc1 (stereo not drawn)
  i	28	nt	-20	4.3	20	-51	nt	-8
(23) COc1ccc(NS(=O)(=O)c2cccc(C(=O)N3CCN(C/C=C/c4ccccc4)CC3)c2)cc1
  i	nt	nt	nt	16	-0.1	-61	nt	-17
(24) CCOc1ccc(C(=O)N2CCC(C(=O)c3ccc4c(c3)OCCO4)CC2)cc1
  nt	6	0.74	nt	-0.2	nt	nt	-0.5	nt
(25) COc1cccc(NC(=O)CN(C)C(C)C(=O)Nc2ccc(S(=O)(=O)N3CCOCC3)cc2)c1 (stereo not drawn)
  i	9	0.7	-2	-1.4	3.9	-7	2.6	-6
(26) COc1cc(OC)c2c(c1)OC(=O)CC2c1ccc2c(c1)OCO2 (stereo not drawn)
  i	-3	0.7	nt	3.6	-3.0*	-21*	-5.8	-28*
(27) O=C(CCl)Nc1ccc(S(=O)(=O)Nc2nccs2)cc1
  i	-1	0.55	-6	1.5	-2.3	9	2.2	1
(28) N#Cc1nc(-c2ccc(F)cc2)oc1NCc1ccco1
  i	4	0.68	-1	4.5	nt	nt	-19	nt
(29) COCCNC(=O)C1(C)CCCN(Cc2cc(-c3ccccc3)nn2C)C1 (stereo not drawn)
  i	nt	nt	nt	2.4	3.8	11	nt	14
(30) CSCCC(NC(=O)C1CCCCC1)c1nc2ccccc2[nH]1 (stereo not drawn)
  i	-3	0.67	nt	-1.4	-0.6	1	4.3	3
(31) C=CCSc1nnc(-c2sc(-c3ccccc3)nc2C)n1C
  nt	2	0.7	-2	-2.5	nt	nt	-106	nt
(32) CCCCSC1(SCCCC)N=C(N)C2(C#N)C(c3ccccc3)NC(C)=C(C)C12C#N (stereo not drawn)
  nt	6	0.75	73	3.0	nt	nt	-1.6	nt
(33) Cc1ccc(C2N(c3cccc(Cl)c3)C(=O)N3CCCN23)cc1 (stereo not drawn)
  i	-7	0.62	-19	-1.0	nt	nt	5.3	nt
(34) O=[N+]([O-])c1ccc(Cc2ccccn2)c([N+](=O)[O-])c1
  i	-7	0.68	-13	1.7	-1.6	1	5.5	7
(35) COc1cc(OC)cc(-c2nc3ccccc3c(=O)n2OC(=O)c2ccccc2C)c1
  i	6	0.69	7	-4.4	-2.8	-4	4.2	-2
(36) CCCn1c(=O)c(C(=O)NCc2cccnc2)c(O)c2ccccc21
  nt	-15	0.7	-7	-4.7	nt	nt	-5.8	nt
(37) COc1ccc(C(=O)/C=C/Nc2ccc(S(=O)(=O)Nc3nc(C)cc(C)n3)cc2)cc1OC
  i	0	nt	-5	-0.7	5.3	8	nt	5
(38) COc1ccc(-c2cc(C(=O)NN3CCOCC3)c3ccccc3n2)cc1OC
  i	0	0.64	nt	2.9	0.7	-1	-5.2	0
(39) COCc1cc(=O)[nH]c(N2CCN(C(=O)c3ccco3)CC2)n1
  i	-2	0.65	-3	2.1	2.8	10	4.4	3
(40) COc1ccc(NC(=O)COC(=O)CNS(=O)(=O)/C=C/c2ccccc2)cc1OC
  i	4	0.71	nt	1.8	-2.5	10	1.6	3

Another view of part of the listing above:
cpd | Compound | FGF22 binding | B2AR ag | Ecoli growth | ALR inh | HNF4A DNA FP | rRNA inh HTS RFP | rRNA inh HTS OD600 | UCH37 inh | rRNA inh HTS
33 | Cc1ccc(C2N(c3cccc(Cl)c3)C(=O)N3CCCN23)cc1 (stereo not drawn) | i | -7 | 0.62 | -19 | -1.0 | nt | nt | 5.3 | nt
34 | O=[N+]([O-])c1ccc(Cc2ccccn2)c([N+](=O)[O-])c1 | i | -7 | 0.68 | -13 | 1.7 | -1.6 | 1 | 5.5 | 7
35 | COc1cc(OC)cc(-c2nc3ccccc3c(=O)n2OC(=O)c2ccccc2C)c1 | i | 6 | 0.69 | 7 | -4.4 | -2.8 | -4 | 4.2 | -2
36 | CCCn1c(=O)c(C(=O)NCc2cccnc2)c(O)c2ccccc21 | nt | -15 | 0.7 | -7 | -4.7 | nt | nt | -5.8 | nt
37 | COc1ccc(C(=O)/C=C/Nc2ccc(S(=O)(=O)Nc3nc(C)cc(C)n3)cc2)cc1OC | i | 0 | nt | -5 | -0.7 | 5.3 | 8 | nt | 5
38 | COc1ccc(-c2cc(C(=O)NN3CCOCC3)c3ccccc3n2)cc1OC | i | 0 | 0.64 | nt | 2.9 | 0.7 | -1 | -5.2 | 0
39 | COCc1cc(=O)[nH]c(N2CCN(C(=O)c3ccco3)CC2)n1 | i | -2 | 0.65 | -3 | 2.1 | 2.8 | 10 | 4.4 | 3
40 | COc1ccc(NC(=O)COC(=O)CNS(=O)(=O)/C=C/c2ccccc2)cc1OC | i | 4 | 0.71 | nt | 1.8 | -2.5 | 10 | 1.6 | 3

Further compounds.
The line under a structure holds: FGF22 binding	B2AR ag	Ecoli growth	ALR inh	HNF4A DNA FP	rRNA inh HTS RFP	rRNA inh HTS OD600	UCH37 inh	rRNA inh HTS
(41) COc1cc(OC)c2c(-c3ccccc3)cc(=O)oc2c1C(CCN1CCCC(C)C1)c1ccc(N(C)C)cc1 (stereo not drawn)
  i	2	0.68	nt	0.2	-20	-77	5.0	-53
(42) CCOc1cc(C(C(=O)NCC2CCCO2)N(C(=O)Cn2nnc3ccccc32)c2cccc(OC)c2)ccc1O (stereo not drawn)
  i	-1	0.68	nt	-2.0	-1.3	-1	6.5	0
(43) Cc1ccccc1-n1nnnc1SCC(=O)Nc1ccc(S(=O)(=O)N2CCCC2)cc1
  nt	-15	0.75	-2	-0.2	nt	nt	2.3	nt
(44) CCOc1ccc(CCNC(=O)COC(=O)c2cc(OC)c(OC)c(OC)c2)cc1OCC
  i	nt	0.69	-1	nt	-2.2	9	5.7	0
(45) COc1cccc(NC(=O)CN(C)C(=O)C2CC3C=CC2C3)c1 (stereo not drawn)
  nt	-4	0.69	1	1.3	-2.0	1	-0.3	3
(46) CC1=Nc2ccc(C)cc2/C1=C/c1c(N)n2oc(C)cc2nc1=O
  i	-14&6	0.69&0.77	-3&1	19&32	42&-0.9	9&2	-9.7&-11	27&2
(47) COc1ccc(S(=O)(=O)NC(C)C(=O)NCc2ccc3c(c2)OCO3)cc1OC (stereo not drawn)
  i	5	0.68	45	1.3	-3.6	3	2.7	4
(48) COC(=O)c1ccccc1NC(=O)C/C(C)=N/NC(=O)CC#N
  nt	-6	nt	16	-0.8	-2.4	10	nt	5
(49) COc1ccc(S(=O)(=O)NCC2CCC(C(=O)NCC(OC)OC)CC2)cc1 (stereo not drawn)
  nt	-3	0.71	1	2.3	1.0	8	-1.5	5
(50) COc1ccc(S(=O)(=O)N2CCCCCC2)cc1C(=O)OCc1cccc(OC)c1OC
  i	2	0.7	nt	-4.6	1.9	-4	4.5	-3
(51) COc1ccccc1N(CC(=O)Nc1ccc(F)c(F)c1)S(C)(=O)=O
  nt	-1	0.71	-3	-1.5	nt	nt	4.2	nt
(52) COC(=O)C1=C(N)OC2=C(C(=O)CCC2)C1c1cccnc1 (stereo not drawn)
  i	0	0.67	0	-2.9	-29	-76	-0.9	-51

These rows are one share of the data; count on the stated rates, not on these rows.
